Sa ugtP lethal: kills S. aureus RN4220 lacking UgtP; S. aureus RN4220 ugtP deletion, OD600 growth, 16 h; some inactives read as strong as hits; growth inhibition, % (test concentration not listed); 330,000 compounds, 0.54% hits;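 active = z-score under -3 and OD600 up to 0.15 on both plates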;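 also: plate controls were untreated wells for no effect and antibiotic for full effect; wells of about 80 µL received 100 nL stock; the first replicate is given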
RN4220 kill: S. aureus RN4220 growth inhibition; OD600, 16 h; inhibition, % (concentration not given with the values); 330,000 compounds, 0.33% hits; AID 1259311;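 active = z-score of -3 or lower and OD600 up to 0.18 on both plates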;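 also: plate controls were untreated cells for no effect and reference antibiotic for full effect; stock transfer was 100 nL into about 80 µL; one replicate is shown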
BJeLR lethal: BJeLR cell viability loss. BJeLR (HRASV12) viability, CellTiter-Glo ATP luminescence, 48 h; reference of the scale not given here. inhibition, % (test concentration not listed). 300,000 compounds, 0.17% hits;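 active = replicate mean above 50%; inconclusive = above 50% but judged a plate artefact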;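 also: 50 nL library stock added to about 25 µL; numbers are from one replicate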
Mtb hypoxia inh: reduces hypoxia-regulated biosensor signal in M. tuberculosis; M. tuberculosis hypoxia-regulated fluorescent reporter, fluorescence; fluorescence inhibition, % (no concentration beside the values); 300,000 compounds, 0.1% hits; AID 1159583;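 active = 35 to 45% if threefold the growth effect, above 45% if 1.5-fold the growth effect; inactive = the rest, general growth blockers included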;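 also: wells of about 50 µL received 100 nL stock; 0% = vehicle wells and 100% = reference inhibitor wells; whole bacteria with a GFP reporter of the hypoxia response; strong numbers were not always called active; many hits fall short of the cut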
PrP UTR inh: inhibition of PrP 5' UTR reporter expression; cell-based PrP 5' UTR mRNA reporter, plate reader; inhibition, % (test concentration not listed); 340,000 compounds, 0.35% hits;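 active = every replicate at 50% or more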;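 also: 0 = median of the neutral control wells; tested in H4 reporter cells; numbers are from one replicate; inactives centre near -14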
Autofluor counter: compound fluorescence in toxin protease inhibitor counterscreen | compound autofluorescence counterscreen, microsphere flow cytometry; hits give high values | fluorescence intensity (no concentration beside the values) | 360,000 compounds, 3.1% hits;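 active = at least 3 SD above the mean of all compounds, about 16000 in these data; inconclusive = too few beads counted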;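 also: 100 nL of 1 mM stock went into each well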
Mtb hypoxia inh growth: also measured in Mtb hypoxia inh; calls as there; growth inhibition, %; measured here: M. tuberculosis growth (absorbance);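 0% = vehicle and 100% = reference antibiotic; read after six days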
Active calls of the source: *; u = inconclusive; x = not tested or not shown.

Start of the listing, in advance:
#1 COCCNC(=O)C(=O)NN=C(C)CC(=O)Nc1cccnc1
#2 COc1cc(C(=O)NN=Cc2sc(=O)n(-c3ccccc3)c2Cl)cc(OC)c1OC
#3 Cc1ccc(C(=O)NCc2nnc(SCC(=O)NC(C)c3ccccc3)n2C)cc1 (configuration not stated)
#4 CC1CN(c2oc(-c3ccco3)nc2S(=O)(=O)c2ccccc2)CC(C)O1 (configuration not stated)
#5 CC(/C=C/c1ccccc1)=NNC(=O)c1nc2nc(C)cc(C)n2n1
#6 CCOc1ccccc1N1CCN(C(=O)c2ccc3c(c2)OCO3)CC1
#7 O=C(CNc1cc(S(=O)(=O)N2CCOCC2)ccc1NCC1CCCO1)Nc1ccccc1F (configuration not stated)
#8 CC12CCC3C(CCC4CC(=NO)CCC43C)C1CCC2O (configuration not stated)
#9 CCCN1CCC(NC(=O)Cc2ccccc2OC)CC1
#10 COc1ccc(N2CCN(C(=O)c3ccc(CNc4c(N5CCOCC5)c(=O)c4=O)cc3)CC2)cc1

Assay by compound,1,2,3,4,5,6,7,8,9,10
Sa ugtP lethal,5,24,10,-8,6,-1,-1,-2,4,3
RN4220 kill,12,2.9,0.7,-0.3,3.0,0.9,4.2,10,-1.5,-1.2
BJeLR lethal,x,x,2,2,x,3,6,x,0,-6
Mtb hypoxia inh,-1,9,8,x,6,2,8,-4,11,x
Mtb hypoxia inh growth,0,8,-1,x,-3,7,1,14,3,x
PrP UTR inh,x,x,-24,-7,x,-36,-8,x,-18,-19
Autofluor counter,x,x,4591,5801,x,5495,u,x,3168,4153

#11 CC(C)c1ccc(NC(=O)C2=CC=CN3CCS(=O)(=O)N=C23)cc1
#12 CC(C(=O)NCc1ccccc1)N1C(=O)C2CC=C(Cl)CC2C1=O (configuration not stated)
#13 CN(C)CCN1C(=O)C(O)=C(C(=O)c2ccco2)C1c1ccccc1F (configuration not stated)

Assay by compound,11,12,13
Sa ugtP lethal,-2,-7,10
RN4220 kill,1.8,-1.2,3.7
BJeLR lethal,x,-10,-9
Mtb hypoxia inh,11,x,6
Mtb hypoxia inh growth,4,x,6
PrP UTR inh,-27,-23,-12
Autofluor counter,u,2659,8797

This part in full, previewed entries included:
#1 COCCNC(=O)C(=O)NN=C(C)CC(=O)Nc1cccnc1
#2 COc1cc(C(=O)NN=Cc2sc(=O)n(-c3ccccc3)c2Cl)cc(OC)c1OC
#3 Cc1ccc(C(=O)NCc2nnc(SCC(=O)NC(C)c3ccccc3)n2C)cc1 (configuration not stated)
#4 CC1CN(c2oc(-c3ccco3)nc2S(=O)(=O)c2ccccc2)CC(C)O1 (configuration not stated)
#5 CC(/C=C/c1ccccc1)=NNC(=O)c1nc2nc(C)cc(C)n2n1
#6 CCOc1ccccc1N1CCN(C(=O)c2ccc3c(c2)OCO3)CC1
#7 O=C(CNc1cc(S(=O)(=O)N2CCOCC2)ccc1NCC1CCCO1)Nc1ccccc1F (configuration not stated)
#8 CC12CCC3C(CCC4CC(=NO)CCC43C)C1CCC2O (configuration not stated)

Assay by compound,1,2,3,4,5,6,7,8
Sa ugtP lethal,5,24,10,-8,6,-1,-1,-2
RN4220 kill,12,2.9,0.7,-0.3,3.0,0.9,4.2,10
BJeLR lethal,x,x,2,2,x,3,6,x
Mtb hypoxia inh,-1,9,8,x,6,2,8,-4
Mtb hypoxia inh growth,0,8,-1,x,-3,7,1,14
PrP UTR inh,x,x,-24,-7,x,-36,-8,x
Autofluor counter,x,x,4591,5801,x,5495,u,x

#9 CCCN1CCC(NC(=O)Cc2ccccc2OC)CC1
#10 COc1ccc(N2CCN(C(=O)c3ccc(CNc4c(N5CCOCC5)c(=O)c4=O)cc3)CC2)cc1
#11 CC(C)c1ccc(NC(=O)C2=CC=CN3CCS(=O)(=O)N=C23)cc1
#12 CC(C(=O)NCc1ccccc1)N1C(=O)C2CC=C(Cl)CC2C1=O (configuration not stated)
#13 CN(C)CCN1C(=O)C(O)=C(C(=O)c2ccco2)C1c1ccccc1F (configuration not stated)
#14 S=C(Nc1cccc(Cl)c1)Nc1ccc2c(c1)OCCO2
#15 CC1(C)C2CCC(C2)C1C/C=N/NC(N)=S (configuration not stated)
#16 CN(CCc1ccccc1)C(=O)c1ccc(NC(=O)Cc2ccc(NC(=O)C3CCN(C(=O)C4CC4)CC3)cc2)cc1

Assay by compound,9,10,11,12,13,14,15,16
Sa ugtP lethal,4,3,-2,-7,10,-3,x,-1
RN4220 kill,-1.5,-1.2,1.8,-1.2,3.7,-2.4,x,-1.7
BJeLR lethal,0,-6,x,-10,-9,1,-1,x
Mtb hypoxia inh,11,x,11,x,6,5,x,-6
Mtb hypoxia inh growth,3,x,4,x,6,9,x,-4
PrP UTR inh,-18,-19,-27,-23,-12,-31,-56,-17
Autofluor counter,3168,4153,u,2659,8797,5489,5958,3024

#17 COc1ccc(C2CC(c3cccc(C)c3)n3nc(N)nc3N2)cc1 (configuration not stated)
#18 COc1ccc(-c2cc(C(=O)N3CCN(c4ccc(F)cc4)CC3)no2)cc1
#19 Cc1cc(=O)c(C(=O)Nc2cccc(N3CCCC3=O)c2)nn1-c1ccccc1Cl
#20 Cc1onc(-c2ccccc2Cl)c1C(=O)N1CCc2ccccc21
#21 CC(OC(=O)c1ccc(Cl)c(S(=O)(=O)N2CCOCC2)c1)C(=O)Nc1ccc(S(N)(=O)=O)cc1 (configuration not stated)
#22 O=C(O)c1ccc(-n2nc(-c3ccccc3)c3ccccc3c2=O)cc1
#23 Cn1nnnc1SCCNCC#Cc1ccccc1
#24 COc1ccccc1CNC(=O)c1ccc(OC(F)F)c(OC)c1

Assay by compound,17,18,19,20,21,22,23,24
Sa ugtP lethal,6,4,2,-6,2,7,7,-3
RN4220 kill,3.7,2.1,4.0,2.6,0.5,5.9,4.4,0.4
BJeLR lethal,11,13,x,2,0,-12,3,-1
Mtb hypoxia inh,x,6,-10,7,7,4,18,5
Mtb hypoxia inh growth,x,5,-3,10,2,9,13,3
PrP UTR inh,-16,-16,-11,-12,-13,-23,-27,-17
Autofluor counter,4547,6326,2935,6011,u,2866,12182,2191

#25 COc1cc(-c2nnc(SCC(=O)c3ccccc3)o2)cc(OC)c1OC
#26 CC(c1ccccc1C(O)c1ccccc1)N(C)C (configuration not stated)
#27 CCc1ccc(S(=O)(=O)NCc2ccc(N3CCN(C)CC3)cc2)cc1
#28 CC(C)(C)c1ccc(-n2ncc3c2CCCC3NC(=O)CCN2CCCO2)cc1 (configuration not stated)
#29 O=C(CSc1ccccc1F)NNC(=O)c1ccncc1
#30 COCCN1Cc2cccc(C(=O)NC3CCCCCC3)c2C1=O
#31 CCc1cc(C(=O)NN=Cc2ccc(OC)cc2)c2ccccc2n1
#32 Cc1sc(NC(=O)c2ccco2)c(C(Nc2ccccn2)c2ccccc2)c1C (configuration not stated)

Assay by compound,25,26,27,28,29,30,31,32
Sa ugtP lethal,-14,7,3,0,8,2,3,8
RN4220 kill,2.2,7.6,2.0,3.9,6.1,3.8,0.4,-7.5
BJeLR lethal,6,9,-2,5,x,-2,x,6
Mtb hypoxia inh,4,8,8,3,x,18,-4,5
Mtb hypoxia inh growth,0,14,13,8,x,22,3,-4
PrP UTR inh,-2,-12,-19,-7,-17,-15,x,-19
Autofluor counter,7785,10539,4847,5942,3623,2421,x,2553

#33 COc1ccccc1CNC(=O)COC(=O)CC1CC2CCC1C2 (configuration not stated)
#34 Cn1cnnc1Sc1ccc(C(=O)OCC(=O)Nc2cc(Cl)cc(Cl)c2)cc1[N+](=O)[O-]
#35 O=C(O)C1CCCCC1C(=O)Nc1ccc(S(=O)(=O)N2CCCCC2)cc1 (configuration not stated)
#36 Cc1ccc([N+](=O)[O-])cc1Nc1nc(N2CCCC2)nc(N2CCCC2)n1
#37 O=C(Cc1c(Cl)cccc1Cl)Nc1ccc(S(=O)(=O)Nc2ncccn2)cc1
#38 CCn1c(Cc2ccccc2)nnc1SCC(=O)Nc1cc(C)on1
#39 Cc1nn(-c2ccccc2)c(Cl)c1C=NNC(=O)c1[nH]ncc1Br
#40 CN1CCN(C(=O)C2CCN(S(=O)(=O)c3ccccc3[N+](=O)[O-])CC2)CC1

Assay by compound,33,34,35,36,37,38,39,40
Sa ugtP lethal,2,-31,9,-3,9,8,2,15
RN4220 kill,6.2,-9.4,1.1,3.2,8.1,0.1,-0.7,4.2
BJeLR lethal,x,-4,-3,7,1,-5,x,x
Mtb hypoxia inh,5,6,10,6,19,4,-1,4
Mtb hypoxia inh growth,5,8,0,-1,1,-3,6,3
PrP UTR inh,-11,-12,-16,-19,-25,-6,x,-15
Autofluor counter,u,1993,4921,3096,3760,21460*,x,6221

#41 COc1ccccc1CNC(=O)COC(=O)Cc1cccc(F)c1
#42 CCc1ccc(OCC(=O)NNC(=O)Cc2ccc(S(=O)(=O)N3CCOCC3)s2)cc1
#43 N#Cc1cccc(NCC(=O)Nc2cccc(S(=O)(=O)N3CCCCC3)c2)c1
#44 COc1ccc(C=NNc2nc3ccccc3[nH]2)c(OC)c1OC
#45 O=C(CNC(=O)c1ccc2c(c1)OCCO2)N/N=C/c1ccc([N+](=O)[O-])cc1
#46 Cc1cc(NS(=O)(=O)c2ccc(NC(=O)CCc3ccccc3)cc2)no1
#47 COc1cc2nc(=S)n(CCCN3CCOCC3)c(N)c2cc1OC
#48 Cc1ccc(Oc2ncnc(N)c2[N+](=O)[O-])cc1

Assay by compound,41,42,43,44,45,46,47,48
Sa ugtP lethal,-3,-5,-1,-7,x,-11,6,-1
RN4220 kill,-1.4,-1.9,2.1,-4.3,x,-12,0.4,4.9
BJeLR lethal,x,-13,x,x,6,5,x,4
Mtb hypoxia inh,-3,-9,10,1,x,13,-1,-1
Mtb hypoxia inh growth,7,0,16,-1,x,16,0,-8
PrP UTR inh,-17,-14,-1,x,-12,-22,-16,-4
Autofluor counter,3590,5873,4085,x,5804,3113,4453,3570

#49 COc1ccc(N2C(=O)NC3CC2(C)Oc2ccc(Cl)cc23)cc1OC (configuration not stated)
#50 Nc1ccc(Oc2cc(N)cc(Oc3ccccc3)c2)cc1
#51 CCOc1ccc(NC(=O)CCC(=O)OC)cc1
#52 O=C(ON=Cc1ccc(N2CCCCC2)c([N+](=O)[O-])c1)c1cccc(Cl)c1
#53 COc1ccc(CNC(=O)/C=C/c2cc3c(cc2Br)OCO3)cc1
#54 COCCN(C(=O)CCC(=O)Nc1cccnc1)C(C(=O)NC1CCCCC1)c1ccccc1 (configuration not stated)
#55 COc1ccc(CCN(Cc2cccs2)S(=O)(=O)c2ccc(S(=O)(=O)N3CCCCCC3)cc2)cc1OC
#56 COc1ccc(OCC(=O)Nc2ccccc2N2CCN(C)CC2)cc1
#57 Cc1occc1-c1nnc(SCC(=O)Nc2ccc(F)cc2)n1C
#58 COc1cc(Br)ccc1NC(=O)c1ccccc1-c1ccccc1C(=O)O
#59 O=C(Nc1ccc(-c2cccc(F)c2)cc1)C1CCCN(Cc2ccccn2)C1 (configuration not stated)

Assay by compound,49,50,51,52,53,54,55,56,57,58,59
Sa ugtP lethal,3,6,13,-5,-2,7,6,7,1,-4,-9
RN4220 kill,-3.0,-3.2,3.6,-14,0.6,1.2,-1.0,1.1,-5.2,6.9,-8.0
BJeLR lethal,8,-1,-3,x,5,-11,-5,2,-4,1,4
Mtb hypoxia inh,x,1,10,2,x,2,3,8,-6,x,4
Mtb hypoxia inh growth,x,-7,5,4,x,0,-6,8,-8,x,11
PrP UTR inh,-28,-49,x,x,-14,-28,-28,-19,-25,-47,8
Autofluor counter,3081,3979,7790,x,2702,3618,2127,3510,3299,5575,6662

Compound activity from PubChem.
